Compound activity deposited in PubChem by ICCB-Longwood Screening Facility, Harvard Medical School.
GIV Gai3 FP = GIV-Galpha-i interaction inhibition; percent of control (FP), % (no concentration beside the values); Galpha-i3/FITC-GIV peptide fluorescence polarization, 90 min; hits give low values; scaled: aluminum fluoride 0%, vehicle 100%; 0.42% of 210,000 active; P08753;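 active = replicate mean at 85% of control or lower, very high polarization wells dropped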;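 note: wells of about 15 µL received 100 nL stock; the first replicate is given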
Target sequence (P08753 whole entry, looked up): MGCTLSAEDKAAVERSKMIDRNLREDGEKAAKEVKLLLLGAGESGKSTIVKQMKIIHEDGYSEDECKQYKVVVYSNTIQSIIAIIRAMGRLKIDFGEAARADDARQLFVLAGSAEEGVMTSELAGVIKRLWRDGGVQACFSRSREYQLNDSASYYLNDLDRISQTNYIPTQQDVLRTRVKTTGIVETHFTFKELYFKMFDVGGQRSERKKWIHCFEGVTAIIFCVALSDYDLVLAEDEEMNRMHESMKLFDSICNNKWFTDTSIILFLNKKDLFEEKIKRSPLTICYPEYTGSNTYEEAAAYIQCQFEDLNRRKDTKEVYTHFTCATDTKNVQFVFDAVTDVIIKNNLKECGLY
Sa growth 42C = S. aureus growth inhibition | S. aureus RN4220 growth, OD600, 20 h, 42 °C; hits give low values | AID 720641 | relative growth, % (test concentration not listed) | 0.53% of 170,000 active;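 active = growth at 42 °C up to 50% and 20 or more points under that at 30 °C, or under 10% at both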;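 note: 300 nL library stock went into each well; scaled to the means of positive and negative controls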
HCMV NEC inh = disrupts HCMV UL50-UL53 complex binding; 0.15% of 190,000 active; inhibition, % (concentration not given with the values); HTRF UL50-UL53 interaction, normalized percent inhibition; AID 1918969;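 active = both replicates at 50% or more, plus weaker picks with an unusually low signal ratio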;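 note: stock transfer was 100 nL into about 20 µL; 0% = negative control wells and 100% = wells with untagged competitor protein; inactives centre near -12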
Sa growth 42C second temp = second read-out of Sa growth 42C, no call of its own (marks repeat the call); relative growth, %; measured here: growth at 30 °C;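 optical density after 20 h as mean of two plates; 100% = untreated growth and lower means inhibition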
Numbers without * were called inactive; . = not tested or not shown; & = joins results of further samples.

SMILES	GIV Gai3 FP	Sa growth 42C	Sa growth 42C second temp	HCMV NEC inh
CNC(=O)C(NS(=O)(=O)c1ccc(C)cc1)C(C)C (stereo not given)	.	110	86	-5
CCN(CC)c1ccc(/C=C2/SC(=Nc3cccc(C)c3)NC2=O)c(OC)c1	.	106	113	-24
COc1cc(OC)c(NC(=O)NCCc2nc3cccnc3n2C2CCCCC2)cc1Cl	111	.	.	-8
COc1ccc(-c2ccc(=O)n(Cc3c(F)cccc3Cl)n2)cc1	103	80	92	7
COc1ccc(OC)c(/C=C(/C#N)c2nc(-c3ccc(-c4ccccc4)cc3)cs2)c1	119	95	83	-21
COc1ccc2[nH]cc(CCNc3ccc(S(=O)(=O)C4CCCCC4)nn3)c2c1	101	.	.	-5
CCCN1Cc2cccc(C(=O)NCc3ccccc3)c2C1=O	100	77	90	0
Cc1ccc(Cn2c(SCC(=O)C(C)(C)C)nc3ccsc3c2=O)cc1	104	105	84	.
Cc1ccc(C(=O)OC2OCCOC2OC(=O)c2ccc(C)cc2)cc1 (stereo not given)	.	102	100	12
CCn1cc(C(=O)NCc2ccccc2Cl)c(=O)c2cc(S(=O)(=O)N3CCc4ccccc4C3)ccc21	101	101	82	-37
CN1CCN(C(CNC(=O)c2ccc(Cl)cc2)c2ccc(N(C)C)cc2)CC1 (stereo not given)	98	.	.	-34
CCC(=O)Nc1ccc(N2CCN(C(=O)CC(C)C)CC2)cc1	102	104	95	-38
Cc1ccc2c(c1)CCCN2C(=O)C1CCCN1C(=O)OC(C)(C)C (stereo not given)	.	86	93	-12
O=C(O)c1ccc(-c2nc3cc(Cl)ccc3s2)cc1	102	109	68	-43
CCOC(=O)c1oc2ccccc2c1CN(C)Cc1ccccc1OC	.	74	96	-24
CCOC(=O)Cc1nc2cc(Cl)ccc2o1	102	92	90	-10
COc1ccc(NC(=O)c2sc3cc(Cl)ccc3c2Cl)cn1	.	114	101	11
NC1=NC(c2ccccc2C(F)(F)F)N(c2ccc(F)c(Cl)c2)C(N)=N1 (stereo not given)	102	96	84	.
O=C1c2cccnc2C(=O)N1Cc1ccc(S(=O)(=O)NCc2ccco2)cc1	113	93	100	-22
O=C(O)C12CCCC(C(=O)O)(CCC1)C2	101	104	91	-20

The last 7 entries of the section before open the next one.
SMILES	GIV Gai3 FP	Sa growth 42C	Sa growth 42C second temp	HCMV NEC inh
O=C(O)c1ccc(-c2nc3cc(Cl)ccc3s2)cc1	102	109	68	-43
CCOC(=O)c1oc2ccccc2c1CN(C)Cc1ccccc1OC	.	74	96	-24
CCOC(=O)Cc1nc2cc(Cl)ccc2o1	102	92	90	-10
COc1ccc(NC(=O)c2sc3cc(Cl)ccc3c2Cl)cn1	.	114	101	11
NC1=NC(c2ccccc2C(F)(F)F)N(c2ccc(F)c(Cl)c2)C(N)=N1 (stereo not given)	102	96	84	.
O=C1c2cccnc2C(=O)N1Cc1ccc(S(=O)(=O)NCc2ccco2)cc1	113	93	100	-22
O=C(O)C12CCCC(C(=O)O)(CCC1)C2	101	104	91	-20
N#CC(C(=O)c1ccccc1)=C1SCCCS1	104	115	88	-72
COc1ccc(CC2c3cc(OC)c(OC)cc3CC[N+]2(C)CCC(=O)OCCCCCOC(=O)CC[N+]2(C)CCc3cc(OC)c(OC)cc3C2Cc2ccc(OC)c(OC)c2)cc1OC (stereo not given)	107	94&81	90&84	-33&-5&-77&-2
Cc1ccccc1NC(=S)NC(=O)C(C)C	108	102	100	4
Cc1cc(C)cc(NC(=O)CSCc2cc(=O)c3cc(Cl)ccc3[nH]2)c1	102	104	88	.
CCOc1ccc(CNS(=O)(=O)c2cc(-c3cc(C)no3)ccc2C)cc1OC	103	86	86	.
CCN(Cc1ccccc1)C(=O)c1cnn(-c2ccc(F)cc2)c1-n1cccc1	104	106	101	.
Cc1cccc(-c2noc(-c3cn(C)c4cc(N5CCCCC5)c(F)cc4c3=O)n2)c1	101	.	.	-16
O=C(CN1c2ccccc2S(=O)(=O)c2ccccc21)NCCc1ccccc1	110	.	.	-11
CCc1cccc(NC(=O)CCc2c(C)nc3c(-c4ccccc4)c(C)nn3c2C)c1	101	97	95	-38
Cn1cc(S(=O)(=O)c2cccc(Cl)c2)c(=O)c2cc(F)c(N3CCCCCC3)cc21	109	108	90	.
CC(C)(C)Nc1c(-c2ccc(Cl)cc2)c(=O)c1=O	107	.	.	-40
Cc1oc2ncnc(N3CCOCC3)c2c1C(=O)N(Cc1ccccc1)C(C)C	103	74	91	.
CCc1cccc(C)c1N(C(=O)Cn1c(COC)nc2ccccc21)C(C)COC (stereo not given)	103	.	.	-9&-13
CC(=O)Oc1ccc(C2=NN(c3ccccc3)C(c3ccccc3)C2)cc1 (stereo not given)	103	.	.	0
COC(=O)c1sc(NC(=O)c2cc3nc(-c4ccc(Br)cc4)cc(C(F)(F)F)n3n2)c(C(=O)OC)c1C	97	92	86	.
CC1=C(c2ccc(C)c(C)c2)S(=O)(=O)N(Cc2ccc(C(=O)NCc3ccccc3)cc2)C1=O	98	.	.	-15
COc1ccc(C)cc1N1CC(C(=O)Nc2cc(Cl)ccc2N2CCN(C)CC2)CC1=O (stereo not given)	.	100	95	-12
COc1ccc(S(=O)(=O)C(C)(C)C)cc1	106	110	78	-26
Cc1ccccc1OCC(=O)Nc1ccc2nc(SCC(N)=O)sc2c1	103	107	74	-28
CCOC(=O)C1CCN(C(=O)CSc2ccccc2Cl)CC1	.	112	87	-25
CCc1ccc(NS(=O)(=O)c2ccc(CN3C(=O)c4cccnc4C3=O)cc2)cc1	98	87	89	.
CCC1CCCCN1CCCNC(=O)c1c(O)nc2ccccn2c1=O (stereo not given)	98	101	79	-23
CC1CCc2nc3ccc(S(=O)(=O)N4CCC(C(=O)N5CCCCC5)CC4)cc3c(C(=O)O)c2C1 (stereo not given)	99	89	83	-38
O=C(NCc1ccncc1)c1nnc(Cc2ccc3c(c2)OCO3)o1	97	.	.	-20
Cc1cccc(NC(=O)c2cnc3ccccn3c2=O)c1	101&104	106	89	-43&-55
COC(=O)c1cc(S(=O)(=O)N2CCCC2C(=O)Nc2cccc(Br)c2)cn1C (stereo not given)	105	.	.	3
O=C1Nc2ccccc2S/C1=C/c1ccc(C(=O)NC2CCCC2)cc1	98	114	72	.
CCN1CCN(C(=O)CSc2ccc(C)cc2)CC1	97	94	99	4
Nc1cc(=O)[nH]c(SCCCCN2C(=O)c3ccccc3C2=O)n1	.	82	89	-31
Cc1n[nH]c(=O)nc1NC1CCCCC1	107	94	88	1
CC(Sc1nnc(Cc2cccs2)n1C)C(=O)c1ccc(NS(C)(=O)=O)cc1 (stereo not given)	.	76	98	-27
Cc1cc(C)cc(NC(=O)NCCn2c(C(F)(F)F)nc3cccnc32)c1	103	.	.	-16
O=C(N/N=C(\Cc1ncc[nH]1)c1ccccc1)c1cccs1	.	92	93	-18
N#CC(=S)Nc1ccc(F)cc1	99	59	17	-31
CS(=O)(=O)c1sc(Br)c2c1C(=O)CCC2	103	101	74	-75
O=C1/C(=C\C=C\c2ccco2)SC(=S)N1NS(=O)(=O)c1ccccc1	97	41	24	-23
CCOC(=O)c1cccc(NS(=O)(=O)c2cc3[nH]c(=O)c(=O)[nH]c3cc2C)c1	104	102	85	.
CCOC(=O)c1sc(NC(=S)NC(=O)c2cc3ccccc3o2)nc1C	102	101	86	.
Cc1ccc(N(Cc2cccs2)C(=O)c2ccco2)cc1	98	102	88	-32
Cc1ccc(C)c(NC(=O)CSc2nnc(CNC(=O)c3ccccc3)n2-c2ccccc2)c1	98	107	80	-25
Cc1cn(S(=O)(=O)c2ccc(F)c(Cl)c2)cn1	103&98	104	85	-43&12
Cc1cc2n(n1)CCCN2C(=O)Nc1ccc(Cl)cc1	100	101	81	.
CCOc1ccc(CN2CCC(C(=O)NCC3CCCO3)CC2)cc1OC (stereo not given)	99	95	89	14
CCOC(=O)c1cc2ncc(C(F)(F)F)cc2s1	96	93	89	-21
CC1CCN(C(=O)/C=C/c2c(Cl)nc3sccn23)CC1	.	93	76	-77
CC(=O)NN1C(=O)c2ccccc2NC1c1ccco1 (stereo not given)	100	104	102	7
Cc1cc(NC(=O)c2ccccc2C)no1	99	106	80	3
CC(=O)N1CCCc2cc(S(=O)(=O)N3CCC(C(=O)N(C)C4CCCCC4)CC3)ccc21	103	119	86	.
COc1ccc(C)cc1NS(=O)(=O)c1ccc2oc(=O)c3ncn(C)c3c2c1	100	106	99	.
Clc1ccc2c(c1)-c1[nH]ncc1CS2	110	102	69	1
CC(C)N(Cc1ccccc1)C(c1cccs1)c1c(O)[nH]c(=O)[nH]c1=O (stereo not given)	102	117	92	7
O=C(COCc1cc(-c2ccc(F)cc2)on1)NC1CCCc2ccccc21 (stereo not given)	102	88	57	-17
CS(=O)(=NC(=S)NC(=O)Oc1ccccc1)c1ccccc1 (stereo not given)	103	79	88	-44
CC(C)n1c(=O)c2oc3ccccc3c2n(Cc2ccccc2F)c1=O	98	126	90	.
O=C1CC(/C=C/c2ccccc2)=Nc2ccccc2N1	103	70	70	.
CCc1noc(-c2cccc(NC(=O)C3CC(=O)N(c4ccccc4)C3)c2)n1 (stereo not given)	104	.	.	-11
O=C(CSc1nnc(Nc2ccccc2)s1)c1ccc(S(=O)(=O)N2CCCC2)cc1	.	92	91	-6
c1ccc(COc2ccc(C3Oc4ccccc4C4CC(c5cccc6ccccc56)=NN43)cc2)cc1 (stereo not given)	100	.	.	-28
Cc1ccc(-c2cn(-c3ccc(C)cc3)c(=N)s2)cc1	.	72	86	-3
Cc1ccccc1-c1nc2scc(CCNC(=O)c3ccc(OC(C)C)cc3)n2n1	102	.	.	-18

(continued)
SMILES	GIV Gai3 FP	Sa growth 42C	Sa growth 42C second temp	HCMV NEC inh
Cc1nc2ccccc2n(CCC(=O)NCCN2CCOCC2)c1=O	106	.	.	-28
O=C(O)CCc1nnc2n(Cc3ccc(Cl)cc3)c(=O)c3ccccc3n12	101	.	.	-24
COc1ccc(-c2ncnn2-c2sc3c(c2C#N)CCCC3)cc1	100	86	85	-30
Cc1ccc(-c2nn3c(C4CCCCC4)nnc3s2)cn1	110	.	.	-29
COc1ccc(-c2c(C#N)c(SCC(=O)Nc3ccc(C)c(C)c3)nc(C)c2C(=O)Nc2ccc(Cl)cc2)cc1	104	106	90	-44
CCc1ccc(C(=O)c2cn(CC(=O)NCCc3ccc(OC)c(OC)c3)c3nc(C)ccc3c2=O)cc1	118	82	79	.
O=C(NCCSc1c[nH]c2ccccc12)c1ccc(Br)o1	101	83	69	-25
Cc1ccc(-c2cc(N3CCOCC3)n[nH]2)cc1	105	.	.	10
Cc1ccccc1/C=N/O	.	98	72	-29
COc1ccc(NC(=O)CC#N)cc1	.	101	87	-24
CC1CCCN(S(=O)(=O)c2cc(C(=O)Nc3ccc(F)c(Cl)c3)n(C)c2)C1 (stereo not given)	107	.	.	-10
CCOc1ccc(-n2ccc(=O)c(C(=O)Nc3c(C)n(C)n(-c4ccccc4)c3=O)n2)cc1	102	.	.	-12
COc1ccc(CCn2c(=O)[nH]c3cc(C(=O)N4CCCCCC4)ccc3c2=O)cc1OC	103	103	78	9
COc1ccc(/C=C2\SC(=S)N(CCC(=O)NN3CCN(C)CC3)C2=O)cc1	104	.	.	-32
COCCCNC1CC(=O)N(c2ccc(OC)cc2)C1=O (stereo not given)	98	104	73	3
O=C(Oc1ccccc1N1CCOCC1)c1ccccc1	100	105	84	-9
Cc1ccc(OCC(=O)NCc2ccco2)c(C(C)(C)C)c1	106	87	75	1
CN(Cc1ccccc1)c1ccc(-c2nc(-c3cccnc3)no2)cc1[N+](=O)[O-]	99	102	86	-22
CC1(C)N2CN(CCCCN3CN4N(C3)C4(C)C)CN21 (stereo not given)	.	120	88	-34
Cc1ccccc1Nc1c(-c2ccc(N3CCOCC3)cc2)nc2ncccn12	102	100	91	-16

2 entries from above, with each value named:
O=C(O)CCc1nnc2n(Cc3ccc(Cl)cc3)c(=O)c3ccccc3n12
  GIV Gai3 FP: 101; Sa growth 42C: .; Sa growth 42C second temp: .; HCMV NEC inh: -24
Cc1nc2ccccc2n(CCC(=O)NCCN2CCOCC2)c1=O
  GIV Gai3 FP: 106; Sa growth 42C: .; Sa growth 42C second temp: .; HCMV NEC inh: -28

(further entries)
SMILES	GIV Gai3 FP	Sa growth 42C	Sa growth 42C second temp	HCMV NEC inh
CCOc1nc(SC)nc2sc3c(c12)CCN(C)C3	122	30	0	-35
CCN(CC)c1nc(OCC(F)(F)F)nc(N(c2ccccc2)c2ccccc2)n1	99	100	92	-1
Cc1ccc(C)c(CN2C(c3ccc(F)c(F)c3)Nc3ccccc3S2(=O)=O)c1 (stereo not given)	97	.	.	10
Cc1ccc(N2C(=O)CSC2/C=C/c2ccccc2)cc1 (stereo not given)	.	45	61	-11
CC1(C)Cc2[nH]c(=O)c(C(=O)O)cc2CO1	103&106	97	93	-4&-4
CCOC(=O)c1cc2c(=O)n3ccccc3nc2n(Cc2ccco2)c1=NC(=O)c1ccc(Br)cc1	107	105	74	-8
CC(C)NC(=O)CCCCn1c(=O)c2ccccc2n(CC(=O)NCCc2ccc(Cl)cc2)c1=O	109	.	.	-17
CN(C)C(=O)c1ccc(C2SCC(=O)N2CCc2ccccc2)cc1 (stereo not given)	99	82	88	3
COc1ccc(-c2cc(C(F)(F)F)n3nc(C)c(-c4ccccc4)c3n2)cc1OC	103	95	92	-5
